MenB inh – Mtb MenB enzyme inhibition; inhibition, %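 (about 12 µg/mL by stock and volumes)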; hit rate 0.43% among 100,000; MenB enzyme assay, absorbance read-out; some hits fall short of the stated cut; AID 540299;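 active = mean of two replicates above 30%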;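 also: 0% = no compound and 100% = wells with inactive enzyme; the first replicate is given; strong numbers were not always called active; inactives centre near -10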
Target sequence (P9WNP5 whole entry, looked up): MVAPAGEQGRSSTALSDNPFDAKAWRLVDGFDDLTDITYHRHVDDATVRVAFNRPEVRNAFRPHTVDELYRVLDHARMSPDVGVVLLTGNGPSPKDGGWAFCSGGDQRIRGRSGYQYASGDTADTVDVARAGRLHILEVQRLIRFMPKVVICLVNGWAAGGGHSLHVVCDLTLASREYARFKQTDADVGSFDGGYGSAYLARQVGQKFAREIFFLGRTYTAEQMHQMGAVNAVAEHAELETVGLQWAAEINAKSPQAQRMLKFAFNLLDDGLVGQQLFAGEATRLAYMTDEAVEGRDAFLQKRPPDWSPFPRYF
Polio RdRp inh – inhibitors of poliovirus RNA polymerase binding and polymerization; P03300; poliovirus polymerase elongation, fluorescence polarization; stronger effect = lower value; % elongation, % (compound at 16.7 µg/mL); hit rate 0.66% among 150,000; AID 588519; in the data active = % elongation below about 90%; also: some results filed as inactive read as strong as hits
Target sequence (P03300 1749-2209 limits assumed): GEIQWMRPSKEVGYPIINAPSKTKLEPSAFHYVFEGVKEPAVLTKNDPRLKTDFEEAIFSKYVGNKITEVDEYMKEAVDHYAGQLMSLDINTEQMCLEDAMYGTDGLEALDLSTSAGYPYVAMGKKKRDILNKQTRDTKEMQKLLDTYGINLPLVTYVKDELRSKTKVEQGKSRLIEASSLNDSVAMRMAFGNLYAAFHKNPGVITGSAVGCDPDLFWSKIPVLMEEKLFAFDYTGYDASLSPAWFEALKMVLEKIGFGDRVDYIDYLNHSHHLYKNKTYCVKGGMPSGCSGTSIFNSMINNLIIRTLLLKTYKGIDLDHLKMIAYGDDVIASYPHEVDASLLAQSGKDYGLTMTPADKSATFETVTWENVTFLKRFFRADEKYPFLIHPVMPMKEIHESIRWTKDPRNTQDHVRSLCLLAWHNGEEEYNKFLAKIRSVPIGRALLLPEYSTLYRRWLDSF
MbtI inh – blocks the Mycobacterium tuberculosis siderophore enzyme MbtI; purified MbtI enzyme, fluorescence intensity read-out; hit rate 0.89% among 100,000; inhibition, %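 (about 17 µg/mL by stock and volumes)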;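 active = above 50% in both replicates, above 80% if mildly self-fluorescent; inactive = the rest, strongly fluorescent compounds included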;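 also: 0% = mean of negative and 100% = mean of positive controls; one replicate is shown; some compounds called inactive have numbers as strong as hits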
Polio RdRp inh intensity – further read-out of Polio RdRp inh, marked with its call; % elongation; measured here: total intensity read-out; formula for this scale not given here;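 total fluorescence in place of polarization; lower means less elongation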
Numbers without * were called inactive; · = not tested or not shown; & = joins results of further samples.

Letter code: A = MenB inh; B = Polio RdRp inh; C = Polio RdRp inh intensity; D = MbtI inh
1	CCOC(=O)C1CCCN(C(=O)Cc2ccc(OC)c(OC)c2)C1 (stereo not given)
  A: 3; B: 100; C: 102; D: -4

2	CCN(c1ccccc1)S(=O)(=O)c1ccc(C(=O)NCCCN2CCCC2=O)cc1
  A: 6; B: 96; C: 102; D: 16

3	COc1ccc(NC(=O)c2ccc3c(=O)n(Cc4ccco4)c(=S)[nH]c3c2)cc1OC
  A: -26; B: 99; C: 100; D: -6

4	O=C1Nc2ccccc2C1(C(F)(F)F)C(F)(F)F
  A: -26; B: 100; C: 101; D: 0

5	Cc1cc(C)c2c(CC(=O)N3CCCc4ccccc43)coc2c1
  A: -21; B: 98; C: 100; D: -5

6	O=C(Nc1ncccn1)c1cccc(F)c1
  A: -8; B: 107; C: 109; D: ·

7	NC(=O)CSc1nnc(-c2ccc(S(=O)(=O)N3CCCC3)cc2)o1
  A: -26; B: 103; C: 102; D: 4

8	CC(=O)N1CCOc2cc(S(=O)(=O)N3CCCCC3)ccc21
  A: 3; B: 103; C: 107; D: -8

9	COc1ccccc1OCC#CCN1CCCc2ccccc21
  A: -12; B: 102; C: 104; D: -9

10	COc1ccc(C2(CNC(C)=O)CCOCC2)cc1OC
  A: -31; B: 101; C: 104; D: -20

11	CCN(Cc1cc2ccccc2[nH]c1=O)c1ccc(OC)cc1
  A: 7; B: 101; C: 100; D: 8

12	CCOC(=O)C1CCCN(C(=O)S(=O)(=O)c2ccc(-c3ccccn3)s2)C1 (stereo not given)
  A: -21; B: 110; C: 122; D: -4

13	[S-]c1n[n+]2c(-c3ccccc3)cc(-c3ccccc3)nc2s1
  A: -24; B: 105; C: 106; D: -6

14	O=C(CSc1nc2ccccc2nc1N1CCCCC1)N1CCN(c2ccc(Cl)cc2)CC1
  A: -13; B: 100; C: 100; D: 6

15	CSc1cccc(NS(=O)(=O)c2ccc3c(c2)OC(C)CN3C(C)=O)c1 (stereo not given)
  A: -14; B: 104; C: 103; D: -2

16	CCCc1nc2c3ccccc3[nH]c(=O)n2n1
  A: -3; B: 103; C: 103; D: 103

17	Cc1ccc(NC(=O)CS(=O)CC(=O)Nc2ccc(N3CCOCC3)cc2)cc1Cl (stereo not given)
  A: -16; B: 101; C: 104; D: 0

18	Cc1cc(=O)c(C(=O)Nc2ccc(N3CCOCC3)cc2N2CCOCC2)nn1-c1ccc(Cl)cc1
  A: 7; B: 106; C: 112; D: -8

19	CCn1c(SCC(=O)NN2CC(=O)N(c3ccc(F)cc3)CC2=O)nnc1-c1cccs1
  A: -13; B: 101; C: 104; D: -9

20	CC(C)CNS(=O)(=O)c1ccc(CCC(=O)N2CCN(c3ccccc3)CC2)cc1
  A: -3; B: 101; C: 103; D: 4

21	COc1ccc(S(=O)(=O)N2CCN(C(=O)/C=C/c3ccccc3)CC2)cc1
  A: -1; B: 104; C: 102; D: -2

22	CCN(CC)C(=O)c1cccc(S(=O)(=O)N(C)C)c1
  A: ·; B: 103; C: 102; D: -7

23	COC(CN(C)C(=O)c1cn(C)c2ccc(S(=O)(=O)N3CCC(C)CC3)cc2c1=O)OC
  A: 1; B: 102; C: 102; D: 1

24	CN1C2CCC1CC(OC(=O)C1(c3ccccc3)CCCC1)C2 (stereo not given)
  A: 17; B: 102; C: 105; D: 7

25	CC1CCCC(C)N1C(=O)COC(=O)c1c2c(nc3ccccc13)CCCC2 (stereo not given)
  A: -4; B: 100; C: 103; D: 9

Part of the list above, with two lines to a compound:
The line under a structure holds: MenB inh	Polio RdRp inh	Polio RdRp inh intensity	MbtI inh
(15) CSc1cccc(NS(=O)(=O)c2ccc3c(c2)OC(C)CN3C(C)=O)c1 (stereo not given)
→ -14	104	103	-2
(16) CCCc1nc2c3ccccc3[nH]c(=O)n2n1
→ -3	103	103	103
(17) Cc1ccc(NC(=O)CS(=O)CC(=O)Nc2ccc(N3CCOCC3)cc2)cc1Cl (stereo not given)
→ -16	101	104	0
(18) Cc1cc(=O)c(C(=O)Nc2ccc(N3CCOCC3)cc2N2CCOCC2)nn1-c1ccc(Cl)cc1
→ 7	106	112	-8
(19) CCn1c(SCC(=O)NN2CC(=O)N(c3ccc(F)cc3)CC2=O)nnc1-c1cccs1
→ -13	101	104	-9
(20) CC(C)CNS(=O)(=O)c1ccc(CCC(=O)N2CCN(c3ccccc3)CC2)cc1
→ -3	101	103	4
(21) COc1ccc(S(=O)(=O)N2CCN(C(=O)/C=C/c3ccccc3)CC2)cc1
→ -1	104	102	-2

(continued)
Letter code: A = MenB inh; B = Polio RdRp inh; C = Polio RdRp inh intensity; D = MbtI inh
26	CCOC(=O)c1ccc(NC(=O)Cn2cnc3c(oc4ccccc43)c2=O)cc1
  A: 9; B: 99; C: 99; D: 6

27	CCOc1ccc(-n2c(Cc3cc(=O)[nH]c(=O)[nH]3)nnc2SCC(=O)N2CCCC2)cc1
  A: -41; B: 101; C: 106; D: -5

28	CC(Sc1nncs1)C(=O)NC(C)c1ccccc1 (stereo not given)
  A: 12; B: 99; C: 96; D: 7

29	c1ccc2c(CNC3CCCCCC3)c[nH]c2c1
  A: -17; B: 101; C: 100; D: -20

30	O=S(=O)(Cc1noc(-c2ccccc2Cl)n1)Cc1ccco1
  A: -2; B: 105; C: 100; D: 28

31	CC1OC(C)C2Cc3ccccc3C2O1 (stereo not given)
  A: -1; B: 100; C: 103; D: -8

32	COc1ccc(C(=O)c2cnc3ccc(F)cc3c2N2CCN(c3ccccc3OC)CC2)cc1
  A: 0; B: 98; C: 101; D: 5

33	CC(=O)N(C)c1nc(-c2ccccc2)cs1
  A: -50; B: 102; C: 99; D: 4

34	O=C(/C=C/c1ccccc1)NCC1COc2ccccc2O1 (stereo not given)
  A: 10; B: 100; C: 100; D: 3

35	CC(C)C(=O)n1nc(-c2cccnc2)nc1NCc1cccs1
  A: -31; B: 105; C: 107; D: -9

36	COc1ccc(COC(=O)C2=C(C)NC3(O)c4ccccc4C(=O)C23O)cc1 (stereo not given)
  A: -44; B: 101; C: 98; D: -3

37	Cc1cc(SCC(=O)NN2CCOCC2)nc(C(C)C)n1
  A: -10; B: ·; C: ·; D: -5

38	Cc1cccc(N2CCN(C(=O)CN3C(=O)c4ccccc4C3=O)CC2)c1C
  A: -8; B: 98; C: 100; D: ·

39	CN(CCC#N)S(=O)(=O)c1ccc2[nH]cc(C(=O)O)c(=O)c2c1
  A: -7; B: 102; C: 107; D: -21

40	CCOC(=O)N1CCN(C(=O)c2ccc3c(c2)sc2nc(-c4ccc(OC)cc4)cn23)CC1
  A: -22; B: 106; C: 108; D: 26

41	CCN(CC)c1nc(N)c2c(N)nc3c(c2c1C#N)CC(c1ccccc1)O3 (stereo not given)
  A: -6; B: 106; C: 107; D: 136

42	Cc1ccc(-c2nnc(-c3cc4c(ccc5ccccc54)oc3=O)o2)cc1
  A: 12; B: 99; C: 104; D: 10

43	CC(C)(C)NC(=O)CSc1nc(C(F)(F)F)cc(=O)[nH]1
  A: 1; B: 98; C: 101; D: 0

44	COc1ccccc1-c1coc2cc(OCC(=O)OCC(C)C)ccc2c1=O
  A: -18; B: 103; C: 100; D: -8

45	COCCN=c1scc(-c2ccco2)n1/N=C/c1ccc(OC)cc1
  A: -60; B: 112; C: 118; D: 5

46	C=CCNC(=O)C1CC(=O)N(c2ccc(OCC(=O)Nc3cc(C)cc(C)c3)cc2)C1 (stereo not given)
  A: -14; B: 108; C: 108; D: ·

47	C=CCOc1c(Br)cc(CNCCCN2CCOCC2)cc1OC
  A: 4; B: 99; C: 102; D: -5

48	Cc1ccc(-c2csc3nc(CNCCN(C)C)[nH]c(=O)c23)cc1
  A: -33; B: 108; C: 113; D: -3

49	CCC(C)NC(=O)CSc1cc(=O)n(C)c2ccccc12 (stereo not given)
  A: -20; B: 102; C: 102; D: 21

50	Cc1ccc(S(=O)(=O)c2nc(S(=O)(=O)c3ccc(C)cc3)c(NCc3ccco3)s2)cc1
  A: -12; B: 102; C: 102; D: 28

(list continues)
Letter code: A = MenB inh; B = Polio RdRp inh; C = Polio RdRp inh intensity; D = MbtI inh
51	CCOC(=O)C1CC(CC2OCCO2)=NO1 (stereo not given)
  A: -3; B: 108; C: 103; D: ·

52	COc1ccc(Br)cc1CNC(=O)C1CCCN(c2nc3ccccc3o2)C1 (stereo not given)
  A: 1; B: 103; C: 98; D: -1

53	CCOC(=O)c1c(NC(=O)COC(=O)C2CCC(=O)N2)sc2c1CCCC2 (stereo not given)
  A: -40; B: 103; C: 107; D: -17

54	Cc1ccc(N=Cc2ccc3ncccc3c2)c(F)c1
  A: ·; B: 103; C: 101; D: -5

55	COc1ccc2cc3cc(C(=O)NCC4CCN(Cc5cccc(C)c5)CC4)oc3nc2c1
  A: -20; B: 102; C: 100; D: 117

56	O=c1c2nnn(-c3ccc(Cl)cc3)c2ncn1CCN1CCCCC1
  A: 10; B: 99; C: 106; D: 0

57	N/C(=N\C(=S)Nc1ccccc1)N1CCOCC1
  A: -26; B: 103; C: 93; D: -1

58	O=C(O)COc1ccccc1O
  A: ·; B: 98; C: 94; D: -8

59	CC(C)NC(=S)N(CCc1ccncc1)C(C)C
  A: -6; B: 101; C: 101; D: -6

60	Cc1ccc(CSc2nc3cnn(C)c3c(=O)n2Cc2ccccc2)cc1
  A: -24; B: 102; C: 102; D: -8

61	CSc1nc(-c2ccccn2)nc(N)c1C#N
  A: 12; B: 113; C: 113; D: -9

62	Cc1ccc(CC(=O)NC(C)C(C)(C)C)cc1 (stereo not given)
  A: -13; B: 101; C: 102; D: -6

63	CCn1c(SCCC#N)nnc1-c1ccncc1
  A: 31*; B: 102; C: 106; D: 2

64	CC(C)C(=O)Nc1ccc(-c2nc3ccc(NC(=O)C(C)C)cc3[nH]2)cc1
  A: -19; B: 103; C: 107; D: ·

65	Cc1cccc(N2CCN(CCNC(=S)Nc3c(C)cccc3C)CC2)c1C
  A: -4; B: 101; C: 101; D: 7

66	CN(Cc1cn(-c2ccccc2)nc1-c1ccc(Cl)cc1)C(=O)CCc1ccco1
  A: -31; B: 105; C: 108; D: 22

67	CCCC(C)C(=O)Nc1nnc(Cc2ccc(OC)cc2)s1 (stereo not given)
  A: -5; B: 101; C: 103; D: ·

68	CCc1c(C)nc2ncnn2c1Nc1cc(Cl)c(OC)cc1OC
  A: -13; B: 102; C: 103; D: -1

69	COC(=O)/C(=C/c1ccco1)NC(=O)c1ccccc1
  A: -10; B: 101; C: 105; D: 7

70	CC(C)N1CC(O)=C(c2nc(-c3ccc(F)cc3)cs2)C1=N
  A: -7; B: 102; C: 107; D: -5

71	COc1ccc(-c2nc(CS(=O)CC(=O)NCC3CCCO3)c(C)o2)cc1 (stereo not given)
  A: -22; B: 101; C: 97; D: 32

72	O=C(CSc1ccccc1)NN1C(=O)c2ccccc2C1=O
  A: -22; B: 101; C: 100; D: -5

73	CCc1ccc(NC(=O)c2ccnc(-n3cnnc3)c2)cc1
  A: -9; B: 103; C: 102; D: -5

74	CCOC(=O)c1cnc(Nc2nc3ccccc3o2)nc1C
  A: 7; B: 100; C: 103; D: -3

75	Cc1ccc(C(=O)c2oc3ccccc3c2NC(=O)c2ccco2)cc1
  A: -41; B: 105; C: 108; D: 76

The list goes on.
Letter code: A = MenB inh; B = Polio RdRp inh; C = Polio RdRp inh intensity; D = MbtI inh
76	CCc1ccc2[nH]c(=O)c(C(c3nnnn3C(C)(C)C)N3CCc4ccccc43)cc2c1 (stereo not given)
  A: -34; B: 100; C: 102; D: 3

77	CCCCC[C@H](O)/C=C/[C@H]1C=CC(=O)[C@@H]1C/C=C\CCCC(=O)O
  A: 5; B: 101&99; C: 102&102; D: -4

78	CSc1nnc(SCC(=O)Nc2c(C#N)c(C)c(C)n2Cc2ccco2)s1
  A: -16; B: 106; C: 108; D: 6

79	CC(C)OC(=O)/C(C#N)=C/c1ccco1
  A: -21; B: 48; C: 257; D: -3

80	CSc1nsc(SCC(=O)OC2CC3CCC2(C)C3(C)C)n1 (stereo not given)
  A: -28; B: 102; C: 102; D: -6

81	CCN1/C(=C2\C(=O)N(c3ccc(Cl)cc3)N=C2C)C=Cc2ccccc21
  A: 0; B: 100; C: 101; D: -22

82	CN(C)C(=O)C1Cc2ccccc2CN1S(=O)(=O)c1ccc(F)cc1 (stereo not given)
  A: -21; B: 103; C: 100; D: -5

83	c1ccc2c(c1)nc1n2CCC1
  A: -214; B: 101; C: 103; D: 12

84	O=C(NCC(O)c1ccccc1)Nc1ccc2c(c1)CCO2 (stereo not given)
  A: -18; B: 104; C: 103; D: -6

85	[N-]=C=C1C(=O)N(CCc2ccccc2)C(=O)[C@H]([n+]2ccccc2)[C@H]1c1ccc(Cl)cc1
  A: -1; B: 69*; C: 74*; D: ·

86	N#CCCNc1ccccc1
  A: 12; B: 106; C: 99; D: 11

87	CC1[N+](=O)C(c2ccccc2)=C(c2ccccc2)N([O-])C1(C)C (stereo not given)
  A: -13; B: 99; C: 104; D: -2

88	O=C(C1CCCN(S(=O)(=O)c2ccc3nc(-c4ccccc4)[nH]c3c2)C1)N1CCc2ccccc21 (stereo not given)
  A: -16; B: 103; C: 100; D: -19

89	N#Cc1ccc(CSc2nnc(-c3cccs3)n2-c2ccccc2)cc1
  A: -32; B: 102; C: 110; D: ·
